HCMV UL50-53 inh: inhibitors of HCMV UL50-UL53 interaction, biochemical, HTRF | HCMV UL50-UL53 nuclear egress complex (human cytomegalovirus) | normalized percent inhibition | inhibition, % (no concentration beside the values) | 190,000 compounds, 0.15% hits;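 active = both replicates at 50% or more, plus weaker picks with an unusually low signal ratio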;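 also: stock transfer was 100 nL into about 20 µL; 0% = negative control wells and 100% = wells with untagged competitor protein; inactives centre near -12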
GIV Gai3 FP: inhibitors of GIV peptide binding to Galpha-i3, primary screen, biochemical, fluorescence polarization, FITC-GIV GBA peptide, rat Galphai3; Guanine nucleotide-binding protein G(i) subunit alpha-3 (Rattus norvegicus), P08753; 90 min; hits give low values; scaled: aluminum fluoride 0%, vehicle 100%; percent of control (FP), % (test concentration not listed); 210,000 compounds, 0.42% hits;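 active = replicate mean at 85% of control or lower, very high polarization wells dropped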;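 also: wells of about 15 µL received 100 nL stock; the first replicate is given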
Target sequence (P08753 whole entry, looked up): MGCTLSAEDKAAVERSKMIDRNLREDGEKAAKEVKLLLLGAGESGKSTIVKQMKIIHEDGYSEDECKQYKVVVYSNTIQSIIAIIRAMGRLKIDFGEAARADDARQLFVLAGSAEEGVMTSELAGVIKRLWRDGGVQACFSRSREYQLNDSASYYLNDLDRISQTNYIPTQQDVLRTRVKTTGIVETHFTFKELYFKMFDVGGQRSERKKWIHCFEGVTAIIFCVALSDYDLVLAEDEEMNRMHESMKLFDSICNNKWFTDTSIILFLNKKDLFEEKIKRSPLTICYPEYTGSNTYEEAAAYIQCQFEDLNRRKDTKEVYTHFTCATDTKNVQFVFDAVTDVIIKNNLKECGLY
Sa growth inh: S. aureus growth inhibition at 42 and 30 °C, primary screen, LtaS inhibitor project, RN4220, two temperatures; OD600, 20 h, 42 °C; hits give low values; 170,000 compounds, 0.53% hits; relative growth, % (test concentration not listed);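 active = growth at 42 °C up to 50% and 20 or more points under that at 30 °C, or under 10% at both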;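 also: 300 nL library stock went into each well; scaled to the means of positive and negative controls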
Sa growth inh second temp: further read-out of Sa growth inh, marked with its call; relative growth, %; measured here: growth at 30 °C;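 optical density after 20 h as mean of two plates; 100% = untreated growth and lower means inhibition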
* hit, by the source's call; · = not tested or not shown; & = joins results of further samples.

SMILES	HCMV UL50-53 inh	GIV Gai3 FP	Sa growth inh	Sa growth inh second temp
CCCCNC(=O)Nc1cccc(-c2nnco2)c1	-7	105	109	99
COC(=O)c1ccc(S(=O)(=O)N(Cc2ccccc2)Cc2ccccc2)n1C	-29	106	106	86
CC(Oc1ccccc1)C(=O)Nc1ccc(OCc2cc(=O)n3ccsc3n2)cc1 (stereo not given)	-43	100	104	79
O=C(CSc1nc2c([nH]c3ccccc32)c(=O)n1-c1ccc(Cl)cc1)N1CCOCC1	·	107	118	99
COC(=O)C1=C(c2ccccc2)c2cc(Cl)ccc2S(=O)(=O)N1CC(=O)N(C)c1ccccc1	-13	100	·	·
O=C(CSC1=NCCN1)NC12CC3CC(CC(C3)C1)C2	13	·	71	95
COc1cccc(C2C(C(=O)Nc3nc4ccc(Br)cc4s3)=C(C)NC3=C2C(=O)CCC3)c1OC (stereo not given)	-6	99	·	·
CS(=O)(=O)c1nc(S(=O)(=O)c2ccc(Cl)cc2)c(N2CCCC2)s1	7	105	99	93
Cc1cccc(-n2c(O)c(C=Nc3ccccc3)c3ccccc3c2=O)n1	-93	·	79	79
COc1cc(NC(=O)C(Cc2ccccc2)NS(=O)(=O)c2cccs2)cc(OC)c1 (stereo not given)	·	108	93	101
COc1ccc(OCC(=O)Nc2ccc(-c3nc4cc(C)c(C)cc4o3)cc2)cc1	-160	107	104	87
COc1ccc(NC(=O)CSc2nc(-c3ccccc3)nc3c2Cc2c(CO)cnc(C)c2O3)cc1Cl	·	97	89	88
O=C1/C(=C/c2ccc(-c3cccc(Cl)c3)o2)NC(=S)N1C1CCCCC1	-24	156	91	78
COc1cccc(N2CCN(C(=O)CCn3nc(C)c(S(=O)(=O)N4CCCC4)c3C)CC2)c1	·	106	95	90
O=c1cccc(-c2ccc(Br)cc2)o1	-96	96	120	72
N=c1c2cnn(-c3ccccc3)c2ncn1/N=C/c1ccc(Cl)cc1Cl	-5	107	97	96
O=C(Cn1nc(C(F)(F)F)c2c1CCCC2)Nc1ccc(Br)cc1	·	96	111	85
C=CCCCCCCCCC(=O)O	-21	·	90	99
CCN=c1scc(-c2ccccc2)n1/N=C/c1ccc(NC(C)=O)cc1	-31	·	82	96
CCOC(=O)c1cnc(Nc2nc3ccccc3o2)nc1CSc1ccc(C)cc1	·	106	103	93
COc1ccc(OC)c(C2CC(=O)C3=C(C2)NC(=O)CC3c2cccc(O)c2)c1 (stereo not given)	-1	108	101	85
COc1cccc(N2CCN(C(=O)C3CCN(S(=O)(=O)c4ccc5c(c4)oc(=O)n5C)CC3)CC2)c1	-24	101	112	88
COc1cc(C2c3c(oc4ccccc4c3=O)C(=O)N2Cc2ccccc2Cl)ccc1O (stereo not given)	2	97	110	91
COc1ccc(C2C(C(=O)OC(C)C)=C(C)NC3=C2C(=O)CC(c2ccc(Cl)cc2)C3)c(OC)c1 (stereo not given)	-19	101	·	·
CCCCN(CCCC)S(=O)(=O)c1ccc2oc(C(=O)NCc3ccccc3)c(C)c2c1	·	105	110	80

A draw from above in order of heavy-atom count, ascending.
SMILES	HCMV UL50-53 inh	GIV Gai3 FP	Sa growth inh	Sa growth inh second temp
CCCCNC(=O)Nc1cccc(-c2nnco2)c1	-7	105	109	99
COc1cc(NC(=O)C(Cc2ccccc2)NS(=O)(=O)c2cccs2)cc(OC)c1 (stereo not given)	·	108	93	101
COc1cccc(N2CCN(C(=O)CCn3nc(C)c(S(=O)(=O)N4CCCC4)c3C)CC2)c1	·	106	95	90
COc1cccc(C2C(C(=O)Nc3nc4ccc(Br)cc4s3)=C(C)NC3=C2C(=O)CCC3)c1OC (stereo not given)	-6	99	·	·

Carrying on.
SMILES	HCMV UL50-53 inh	GIV Gai3 FP	Sa growth inh	Sa growth inh second temp
Cc1nnc2sc(-c3ccc(N)cc3)nn12	-36	106	95	83
COC(=O)c1c(C)sc2c(C(F)(F)F)cc(=O)[nH]c12	-49	102	84	86
CCC(Sc1nnc2c3ccccc3n(CC)c2n1)C(=O)Nc1ccccc1OC (stereo not given)	-45	106	88	78
COc1cccc(Cn2c(CNC(=O)Cc3cccc(C)c3)nc3cccnc32)c1	·	112	111	84
CC(C)c1ccc(N2C(=O)Cc3c2nc(N)c2c(N)nc(N4CCCC4)c(C#N)c32)cc1	-38	·	102	89
O=C(/C=C/c1ccco1)N(c1ccccn1)c1ccccn1	-26	·	109	71
CCC1(C)NC(=O)N(/N=C/C=C2\N(C)c3ccccc3C2(C)C)C1=O (stereo not given)	-14	·	83	91
CCOC(=O)/C(C)=N/Nc1cc(C(F)(F)F)ccc1N1CCOCC1	-35	104	95	83
COc1ccc(NC(=O)C(C(C)C)N2Cc3ccccc3C2=O)cc1 (stereo not given)	·	107	107	81
CCOc1ccc(-c2c(C)[nH]n3c(=O)c(NCCc4c[nH]c5ccccc45)c(C)nc23)cc1OCC	0	112	·	·
CCN(CC)S(=O)(=O)c1cc(-c2ccc(=O)n(C(C)C(=O)Nc3cccc(C#N)c3)n2)ccc1C (stereo not given)	-28	97	98	77
O=C(CSc1cn(CC(=O)N2CCCC2)c2ccccc12)Nc1ccccc1C(F)(F)F	·	101	99	87
O=C(CCC(=O)NC1CC1)NNc1nc2ccccc2c2nc(-c3ccccc3)nn12	9	105	108	76
Cc1ccsc1/C=N/NC(=O)CO	-10	98	85	124
O=C(COC(=O)/C=C/c1ccc(I)o1)NC1CC1	-22	·	135	89
O=C(CN1CCCCC1)N1CCc2ccccc21	-22	103	92	96
CCOc1cc(CNc2ccc(N(CC)CC)cc2)ccc1OCC(=O)NC(C)(C)C	-8	109	85	80
COc1ccc(-c2csc(N(CC(C)C)C(=O)c3cccs3)n2)cc1	-36	103	78	90
CCN(C(=O)c1cnc(SC)cc1C(F)(F)F)c1ccc(Cl)cc1	-4	105	121	95
Cc1ccc(NC(=O)Cn2c3ccccc3c(=O)c3cc([N+](=O)[O-])ccc32)c(C)c1	-15	103	·	·
Cc1ccc(CNCc2c(C(=O)O)c(C)n(Cc3ccccc3)c2C)cc1	·	103	110	87
Cc1ccc(C(=O)N/C(=C\C=C/c2ccccc2)C(=O)NCC2CCCO2)cc1 (stereo not given)	-35	·	101	84
N#CC(C(=O)c1cc2ccccc2o1)c1ccc2ccccc2n1 (stereo not given)	-114	·	92	77
Cc1oc(-c2cccc(Cl)c2)nc1CSCC(=O)O	·	109	113	90
O=C(NCc1ccc2c(c1)OCO2)c1cc2cc(Cl)ccc2[nH]1	-3	106	116	94

Reprinted from the part before: three entries; new compounds follow.
SMILES	HCMV UL50-53 inh	GIV Gai3 FP	Sa growth inh	Sa growth inh second temp
N#CC(C(=O)c1cc2ccccc2o1)c1ccc2ccccc2n1 (stereo not given)	-114	·	92	77
Cc1oc(-c2cccc(Cl)c2)nc1CSCC(=O)O	·	109	113	90
O=C(NCc1ccc2c(c1)OCO2)c1cc2cc(Cl)ccc2[nH]1	-3	106	116	94
O=C(Nc1ccc(NS(=O)(=O)c2ccc(Br)c(C(=O)Nc3ccccc3)c2)cc1)c1ccccc1	-3	104	·	·
Cc1ccc2cc(CCNC(=O)c3ccc4c(c3)OCO4)c(=O)[nH]c2c1C	-29	103	88	86
O=C(CCc1ccccc1)NCCc1csc(-c2ccc(Cl)cc2)n1	-27	107	·	·
COc1cc(/C=C2\N=C(c3ccc(Cl)c([N+](=O)[O-])c3)OC2=O)ccc1OC(C)=O	-14	108	·	·
Cc1ccc(Cn2cc(C(=O)c3ccc(C)cc3)c(=O)c3ccc(C)nc32)cc1	-9	109	93	94
CC1CC(=O)N(Cc2ccc(C(C)(C)C)cc2)c2ccccc2N1 (stereo not given)	-19	101	·	·
O=C(Nc1ccc2[nH]ccc2c1)c1ccccc1	-3	111	96	91
COc1cc(C(=O)Nc2cccc(-c3nc4cc(Cl)ccc4o3)c2C)cc(OC)c1OC	-3	109	106	66
CCCc1noc(-c2ccc(N3CCCCC3)c([N+](=O)[O-])c2)n1	-29	98	102	80
Cc1cc(C(=O)O)ccc1-c1ccc(/C=C2\SC(=S)NC2=O)o1	-48	162	25	19
CCCCOc1ccc(C2=NC(c3cccs3)=Nc3ccc(OC)cc3N2)cc1	4	100	97	73
COC(=O)c1cc(-c2ccccc2OC)nc2c1c(C)nn2CCC#N	-39	·	77	92
Cc1c(/C=C/c2ccc(Cl)cc2Cl)c(=O)n(-c2ccccc2)n1C	-9	·	66	88
O=c1c2[nH]c3ccccc3c2nc(SCc2cccc(F)c2)n1-c1ccccc1	·	104	137	78
CCc1ccc(NC(=O)C2CCCN2S(=O)(=O)c2ccc3c(c2)NC(=O)CO3)cc1 (stereo not given)	-14	100	·	·
O=C(CCC(=O)N1Cc2ccccc2Oc2ncccc21)NCc1ccccc1Cl	-14	96&109	96	90
Cc1ccc(CSc2nnc(-c3ccncc3)n2CC(C)C)cc1	-32	104	91	87
COc1ccc(-n2nc(C)c3c(C(F)(F)F)cc(-c4cccnc4)nc32)cc1	-10	99	97	89
CS(=O)(=O)N1CCCN2C(=O)c3ccccc3C21 (stereo not given)	-4	100	83	90
Cc1cc2nc(Cc3cc(Br)ccc3F)c(=O)[nH]c2cc1C	-6	104	·	·
CC(C)(C)C(=O)OCc1cc(=O)n2nc(C3CC3)sc2n1	·	119	88	80
COC(=O)c1cc2ccsc2n1CC(=O)NCc1ccc(F)cc1	7	104	·	·
CCCn1c(=O)c2sccc2n2c(CCCC(=O)N3CCC(C)CC3)nnc12	-10	113	104	104
Cc1nc(Nc2ccccc2)nc(Nc2ccccc2)c1NC(=O)c1cccc(F)c1	-21	103	·	·
O=C(c1cccc(-n2cccc2)c1)N1CCC(c2nc3ccccc3s2)CC1	7	·	124	97
SMILES	HCMV UL50-53 inh	GIV Gai3 FP	Sa growth inh	Sa growth inh second temp
O=C1c2ccccc2C(=O)N1CN(C(=O)c1cccnc1)c1cccc(F)c1	-62	·	78	87
CCC(NC(=O)OC1CCCCC1C)(C(F)(F)F)C(F)(F)F (stereo not given)	-14	·	93	85
CCn1nccc1NC(=O)c1ccccc1	-10&-5	103&107	79	89
C=CCSc1nc2c(c(=O)[nH]1)C(c1cc(F)cc(F)c1)CC(=O)N2 (stereo not given)	-13	105	·	·
CCOc1ccccc1NC(=O)c1c(NC(=O)COc2ccccc2)sc2c1CCCCC2	8	109	103	100
Cc1c(/C=N/NC(=O)c2cncc(Br)c2)c2ccccc2n1C	-3	97	110	89
Cc1ccc2[nH]c3c(=O)n(CC(=O)N4CCN(c5ccccc5F)CC4)ncc3c2c1	·	103	85	88
CC(=O)Nc1ccc(N2C(=O)c3cc4ccsc4n3CC2(C)C(=O)NC2CCCCC2)cc1 (stereo not given)	-24	108	·	·
COc1cccc(C(=O)Nc2ccc3oc(-c4cccc(I)c4)nc3c2)c1	·	107	105	83
COc1cc(/C=C2\C(C)=C(C#N)c3nc(N)c(C#N)c(C)c32)ccc1OCc1cccc(C(=O)O)c1	-12	104	·	·
CC(O)C(NS(=O)(=O)c1ccc(Cl)cc1)C(=O)OCc1nnc(-c2ccccc2)o1 (stereo not given)	-13	·	89	91
CCCCc1nc2c3c(C)c(C)n(-c4ccc(F)cc4)c3ncn2n1	-18	106	·	·
Cc1cccc(NC(=O)C2CCN(S(=O)(=O)c3cccc4nsnc34)CC2)c1C	-25&-53	104&102	112	95
Cc1cccc(C(=O)Nc2ccc3oc(-c4ccncc4)nc3c2)c1	-39	104	96	88
CN(C)c1ccc(/C=N/N2C(=O)C3C4C=CC(C4)C3C2=O)o1 (stereo not given)	-47	100	98	94
Cc1ccccc1-c1nnc(C2CCC(c3ccccc3)CC2)o1 (stereo not given)	-23	107	115	99
CC(=O)Nc1ccc(C(=O)NCCn2c(-c3ccccc3)nc3ccccc32)cc1	-8	105	·	·
CC(=O)N1CCCCNC1=S	9	·	103	88
Cc1cc(C)c2c(n1)sc1c(=O)[nH]cnc12	14	·	97	105
O=C1CSCN1Cc1c(Cl)cccc1Cl	1	100	95	91
COc1ccccc1NC(=O)CN1N=C(c2ccccc2)c2ccccc2S1(=O)=O	-22	98	·	·
COC(=O)c1ccccc1NC(=O)c1ccc(Cn2cc(Cl)cn2)o1	-1	106	99	84
CCOC(=O)N1CCC2(CC1)CC(=O)c1cc(O)ccc1O2	-5	107	121	91
CNC(=O)Cn1ncc2c3ccccc3n(Cc3ccccc3F)c2c1=O	·	104	79	93
COC(=O)c1c(NC(=O)CSc2nnc3sc4ccccc4n23)sc2c1CCC(C)C2 (stereo not given)	-10	102	·	·
O=C(Cn1c(SCC(=O)Nc2ccc(F)cc2)nc2ccccc21)NCc1ccc(F)cc1	·	109	75	115
COc1ccc(S(=O)(=O)c2c(C)cc(C)[nH]c2=O)cc1	-2	100	·	·
Cc1cccc(NC(=O)C2CCCCC2)c1C(=O)O	-6	99	101	87
COc1ccc2cc(CNc3ccc(OC)c(OC)c3)c(=O)n(CC(=O)Nc3ccccc3F)c2c1	·	111	103	99
CC(C)CCN(C(=O)Nc1ccc(Cl)c(Cl)c1)C(C)c1cccs1 (stereo not given)	·	102	63	94

Four records picked at random from the list so far, as already listed:
SMILES	HCMV UL50-53 inh	GIV Gai3 FP	Sa growth inh	Sa growth inh second temp
CC(C)CCN(C(=O)Nc1ccc(Cl)c(Cl)c1)C(C)c1cccs1 (stereo not given)	·	102	63	94
COc1cc(/C=C2\C(C)=C(C#N)c3nc(N)c(C#N)c(C)c32)ccc1OCc1cccc(C(=O)O)c1	-12	104	·	·
COc1ccccc1NC(=O)CN1N=C(c2ccccc2)c2ccccc2S1(=O)=O	-22	98	·	·
Cc1cccc(NC(=O)C2CCN(S(=O)(=O)c3cccc4nsnc34)CC2)c1C	-25&-53	104&102	112	95

Screens from PubChem BioAssay.
